Bioassay records (PubChem)
A1 apoptosis 2: A1 inhibition read as caspase activation; MEF A1-2A-BIM cells, caspase-Glo luminescence, 3 h; percent of clofoctol response, DMSO zero; caspase activation, % (concentration not given with the values); 24,000 tested, under 10 active; AID 2465; in the data active = caspase activation above about 5.9%;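 note: wells of about 30 µL received 50 nL stock; the first replicate is given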
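system = A1-2A-BIM-expressing MEF cells | quantity = 2500 MEF cells/well | dosing = 50 nL compound per well, pinned | schedule = overnight cell settling, then 3 h compound exposure, 37 °C | signal = luminescence from DEVD-luciferin Caspase-Glo reagent, 1:1 in 50 mM HEPES, 1 h RT | read-out = Caspase-3/7 activation, seen as rise in luminescence signal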
Active calls of the source: *.

SMILES | A1 apoptosis 2
C[C@H](CO)N1C[C@H](C)[C@@H](CN(C)C(=O)Nc2ccc(F)cc2)Oc2ccc(NC(=O)Nc3cccc4ccccc34)cc2C1=O | -0.7
O=C1O[C@H](c2ccccc2)[C@H](c2ccccc2)N2[C@H]1[C@@H](C(=O)O)[C@]1(C(=O)Nc3ccc(C#CCCO)cc31)[C@H]2c1ccccc1OCCO | -0.3
COc1ccc(COCC23N=C4SCc5ccccc5CN4[C@H](c4ccccc4O2)[C@H]3CO[Si](C)(C)C(C)(C)C)cc1 | 0.6
C[C@@H]1CN([C@@H](C)CO)C(=O)c2cccc(NC(=O)c3ccc(-c4nccs4)cc3)c2O[C@@H]1CN(C)CC1CC1 | 0.1
O=C(O)C1=C[C@H](c2ccc3c(c2)Cc2ccccc2-3)C[C@H](OCc2ccc(CO)cc2)O1 | -3.8
COc1ccc(NC(=O)N(C)C[C@@H]2OCCCC[C@@H](C)Oc3ccc(NC(=O)Nc4ccc(C(F)(F)F)cc4)cc3C(=O)N([C@H](C)CO)C[C@@H]2C)cc1 | -0.9
CC(C)NC(=O)Nc1ccc2c(c1)C(=O)N([C@H](C)CO)C[C@@H](C)[C@H](CN(C)S(=O)(=O)c1cn(C)cn1)OCCCC[C@@H](C)O2 | 1.2
C[C@H]1CN([C@@H](C)CO)C(=O)CCCn2cc(nn2)CO[C@H]1CN(C)C(=O)CCCN(C)C | -0.1
Cc1noc(C)c1NC(=O)Nc1cccc2c1O[C@@H](CN(C)Cc1ccc(C(=O)O)cc1)[C@@H](C)CN([C@@H](C)CO)C2=O | 1.0
O=C(CCCCCC(=O)Nc1ccccc1O)N/N=C/c1ccc([N+](=O)[O-])s1 | 0.1
C[C@H](CO)N1C[C@H](C)[C@H](CN(C)C(=O)C2CCCCC2)OCCCC[C@H](C)Oc2ccc(NS(=O)(=O)c3ccc(F)cc3)cc2C1=O | -1.5
C[C@@H]1CCCCO[C@H](CN(C)Cc2ccccc2)[C@H](C)CN([C@H](C)CO)C(=O)c2cc(NC(=O)CCC(F)(F)F)ccc2O1 | 0.6
C[C@@H]1CCCCO[C@H](CN(C)C(=O)Nc2ccccc2)[C@H](C)CN([C@H](C)CO)C(=O)c2cc(NS(=O)(=O)c3ccc(Cl)cc3)ccc2O1 | -1.0
C[C@H]1CN([C@@H](C)CO)C(=O)Cc2cc(NC(=O)Cn3cnnn3)ccc2O[C@H]1CN(C)S(=O)(=O)c1cccs1 | 0.3
CNC[C@@H]1Oc2ccc(NS(=O)(=O)c3ccc(Cl)cc3)cc2CC(=O)N([C@H](C)CO)C[C@@H]1C | 1.0
COc1ccc(S(=O)(=O)Nc2ccc3c(c2)CC(=O)N([C@@H](C)CO)C[C@@H](C)[C@H](CN(C)S(=O)(=O)c2ccc(Cl)cc2)O3)cc1 | 2.8
C[C@@H]1CN([C@@H](C)CO)C(=O)c2cc(NC(=O)c3ccccc3)ccc2O[C@@H](C)CCCCO[C@H]1CN(C)C(=O)CCCN(C)C | -0.9
C[C@H](CO)N1C[C@H](C)[C@H](CN(C)C(=O)Nc2ccc(N3CCCCC3)cc2)OCc2cn(nn2)CCCC1=O | -0.2
C[C@@H]1CN([C@@H](C)CO)C(=O)CCCn2nncc2CO[C@@H]1CN(C)C(=O)C1CC1 | 0.0
C[C@H](CO)N1C[C@H](C)[C@@H](CN(C)C(=O)Nc2ccnc(N3CCOCC3)c2)OCc2cnnn2CCCC1=O | -0.6
C[C@@H]1CN([C@@H](C)CO)C(=O)c2cccc(NS(=O)(=O)c3cccs3)c2O[C@H]1CN(C)Cc1ccc(C(F)(F)F)cc1 | 0.2
O=C(O)CCCCCC(=O)N/N=C/c1cc(Br)ccc1O | 0.1
C[C@H](CO)N1C[C@H](C)[C@H](CN(C)C(=O)Nc2ccccc2)Oc2ncc(-c3cccc(C(F)(F)F)c3)cc2C1=O | -0.6
COc1cc(/C=C/C=N/NC(=O)CCCCCC(=O)Nc2ccccc2O)ccc1O | -1.1
CC(C)NC(=O)N(C)C[C@@H]1Oc2ccc(NS(=O)(=O)c3ccccc3)cc2C(=O)N([C@@H](C)CO)C[C@H]1C | -0.5
C[C@H](CO)N1C[C@H](C)[C@H](CN(C)Cc2ccc(C(=O)O)cc2)Oc2ccc(NS(=O)(=O)c3ccc(Cl)cc3)cc2CC1=O | -0.1
C[C@H]1CCCCO[C@@H](CN(C)C(=O)Nc2ccccc2)[C@@H](C)CN([C@@H](C)CO)C(=O)c2cc(NS(C)(=O)=O)ccc2O1 | -0.4
Brc1ccc2nc(N3CCCCCC3)nc(NC3CCN(Cc4ccccc4)CC3)c2c1 | -0.1
C[C@H](CO)N1C[C@H](C)[C@H](CN(C)C(=O)Nc2ccc(C(F)(F)F)cc2)OCCCC[C@H](C)Oc2ccc(NC(=O)Nc3ccccc3)cc2C1=O | 0.5
COc1ccc(NC(=O)N(C)C[C@H]2OCCCC[C@H](C)Oc3ccc(NC(=O)Nc4c(C)noc4C)cc3C(=O)N([C@H](C)CO)C[C@@H]2C)cc1 | -0.9
C[C@H](CO)N1C[C@H](C)[C@H](CN(C)Cc2ccc(C(=O)Nc3ccccc3N)cc2)Oc2c(NC(=O)c3cnccn3)cccc2C1=O | -0.8
CN(C)CCCOc1ccc(/C=N/NC(=O)c2cccc(C(=O)NO)c2)cc1 | -0.3
C[C@@H]1CCCCO[C@@H](CN(C)C(=O)Nc2ccc(C(F)(F)F)cc2)[C@@H](C)CN([C@H](C)CO)C(=O)c2cc(NC(=O)C3CCCCC3)ccc2O1 | 0.7
C[C@H]1CCCCO[C@H](CN(C)Cc2ccc(C(=O)O)cc2)[C@@H](C)CN([C@@H](C)CO)C(=O)c2cc(NC(=O)c3ccncc3)ccc2O1 | -0.4
C[C@H](CO)N1C[C@H](C)[C@H](CN(C)C(=O)Nc2ccc(F)cc2)Oc2ccc(NC(=O)NC3CCCCC3)cc2CC1=O | 0.6
CC(C)NC(=O)N(C)C[C@@H]1OCCCC[C@@H](C)Oc2ccc(NS(=O)(=O)c3ccc(F)cc3)cc2C(=O)N([C@H](C)CO)C[C@@H]1C | 0.5
Cc1noc(C)c1NC(=O)N(C)C[C@H]1Oc2c(NC(=O)c3cnccn3)cccc2C(=O)N([C@@H](C)CO)C[C@H]1C | -0.6
O=C(CCCCCC(=O)Nc1ccccc1O)N/N=C/c1cccnc1 | 2.9
C[C@@H]1CN([C@H](C)CO)C(=O)c2cc(NC(=O)Nc3ccc(F)cc3)ccc2O[C@@H](C)CCCCO[C@@H]1CN(C)Cc1ccc(C(=O)O)cc1 | 0.4
C[C@@H]1CN([C@@H](C)CO)C(=O)c2cc(NC(=O)Nc3ccccc3)ccc2O[C@@H](C)CCCCO[C@H]1CN(C)Cc1ccncc1 | -2.0
CC(C)NC(=O)Nc1ccc2c(c1)C(=O)N([C@@H](C)CO)C[C@@H](C)[C@H](CN(C)C)O2 | -0.2
C[C@@H]1CN([C@H](C)CO)C(=O)c2cccc(NC(=O)Nc3ccccc3)c2O[C@@H]1CN(C)Cc1ccc(-c2ccccc2)cc1 | -0.5
C[C@@H]1CN([C@H](C)CO)C(=O)Cc2cc(NC(=O)C3CC3)ccc2O[C@@H]1CN(C)Cc1ccc2c(c1)OCO2 | 0.3
Cc1ccc(S(=O)(=O)N(C)C[C@H]2OCCCC[C@@H](C)Oc3ccc(NS(C)(=O)=O)cc3C(=O)N([C@H](C)CO)C[C@@H]2C)cc1 | 1.4
C[C@H](CO)N1C[C@H](C)[C@@H](CN(C)S(=O)(=O)c2ccc(F)cc2)Oc2ccc(NC(=O)Nc3ccccc3)cc2C1=O | -0.2
COc1ccc(S(=O)(=O)N(C)C[C@H]2Oc3ccc(NC(=O)CCN4CCOCC4)cc3C(=O)N([C@@H](C)CO)C[C@@H]2C)cc1 | 1.3
Cc1noc(C)c1S(=O)(=O)Nc1ccc2c(c1)CC(=O)N([C@@H](C)CO)C[C@H](C)[C@H](CN(C)Cc1ccc(-c3ccccc3)cc1)O2 | -0.7
C[C@@H]1CCCCO[C@@H](CN(C)C(=O)NC2CCCCC2)[C@@H](C)CN([C@@H](C)CO)C(=O)c2cc(NC(=O)Nc3ccc(F)cc3)ccc2O1 | 0.8
Cc1noc(C)c1S(=O)(=O)Nc1ccc2c(c1)C(=O)N([C@@H](C)CO)C[C@@H](C)[C@H](CN(C)C(=O)Nc1ccccc1)O2 | -0.9
C[C@H]1CCCCO[C@@H](CN(C)S(=O)(=O)c2cn(C)cn2)[C@@H](C)CN([C@@H](C)CO)C(=O)c2cc(NS(=O)(=O)c3cn(C)cn3)ccc2O1 | -1.3
(cont.)
SMILES | A1 apoptosis 2
Cc1ccc(S(=O)(=O)Nc2ccc3c(c2)C(=O)N([C@H](C)CO)C[C@@H](C)[C@H](CN(C)Cc2ccccc2)O3)cc1 | 0.9
C[C@@H]1CN([C@@H](C)CO)C(=O)c2cc(NC(=O)CCC(F)(F)F)ccc2O[C@@H](C)CCCCO[C@H]1CN(C)C(=O)Nc1ccc(C(F)(F)F)cc1 | 1.5
CNC[C@@H]1OCCCC[C@@H](C)Oc2ccc(NC(=O)NC(C)C)cc2C(=O)N([C@H](C)CO)C[C@@H]1C | -1.1
C[C@H]1CCCCO[C@H](CN(C)S(=O)(=O)c2ccc(Cl)cc2)[C@@H](C)CN([C@@H](C)CO)C(=O)c2cc(NC(=O)c3ccncc3)ccc2O1 | 1.3
C[C@H](CO)N1C[C@H](C)[C@@H](CN(C)Cc2ccc3c(c2)OCO3)OCCCC[C@H](C)Oc2ccc(NC(=O)Cc3ccccc3)cc2C1=O | 0.5
Cc1ccc(S(=O)(=O)Nc2ccc3c(c2)C(=O)N([C@H](C)CO)C[C@H](C)[C@@H](CN(C)C(=O)Nc2cccc4ccccc24)OCCCC[C@@H](C)O3)cc1 | 0.4
C[C@@H]1CN([C@@H](C)CO)C(=O)CCCn2nncc2CO[C@@H]1CN(C)S(=O)(=O)c1ccc(F)cc1 | 0.1
C[C@H](CO)N1C[C@H](C)[C@H](CN(C)S(=O)(=O)c2cccs2)Oc2ccc(NC(=O)CCN3CCOCC3)cc2C1=O | -0.4
Cc1ccc(S(=O)(=O)N(C)C[C@@H]2Oc3ccc(NC(=O)C4CC4)cc3CC(=O)N([C@@H](C)CO)C[C@H]2C)cc1 | 1.0
CC(C)NC(=O)N(C)C[C@H]1Oc2ccc(NC(=O)Cc3ccccc3)cc2C(=O)N([C@@H](C)CO)C[C@H]1C | 0.5

Reformatted: results already given.
compound	A1 apoptosis 2
Cc1noc(C)c1S(=O)(=O)Nc1ccc2c(c1)C(=O)N([C@@H](C)CO)C[C@@H](C)[C@H](CN(C)C(=O)Nc1ccccc1)O2	-0.9
C[C@H]1CCCCO[C@@H](CN(C)S(=O)(=O)c2cn(C)cn2)[C@@H](C)CN([C@@H](C)CO)C(=O)c2cc(NS(=O)(=O)c3cn(C)cn3)ccc2O1	-1.3
Cc1ccc(S(=O)(=O)Nc2ccc3c(c2)C(=O)N([C@H](C)CO)C[C@@H](C)[C@H](CN(C)Cc2ccccc2)O3)cc1	0.9
C[C@@H]1CN([C@@H](C)CO)C(=O)c2cc(NC(=O)CCC(F)(F)F)ccc2O[C@@H](C)CCCCO[C@H]1CN(C)C(=O)Nc1ccc(C(F)(F)F)cc1	1.5
CNC[C@@H]1OCCCC[C@@H](C)Oc2ccc(NC(=O)NC(C)C)cc2C(=O)N([C@H](C)CO)C[C@@H]1C	-1.1
C[C@H]1CCCCO[C@H](CN(C)S(=O)(=O)c2ccc(Cl)cc2)[C@@H](C)CN([C@@H](C)CO)C(=O)c2cc(NC(=O)c3ccncc3)ccc2O1	1.3
C[C@H](CO)N1C[C@H](C)[C@@H](CN(C)Cc2ccc3c(c2)OCO3)OCCCC[C@H](C)Oc2ccc(NC(=O)Cc3ccccc3)cc2C1=O	0.5
Cc1ccc(S(=O)(=O)Nc2ccc3c(c2)C(=O)N([C@H](C)CO)C[C@H](C)[C@@H](CN(C)C(=O)Nc2cccc4ccccc24)OCCCC[C@@H](C)O3)cc1	0.4
C[C@@H]1CN([C@@H](C)CO)C(=O)CCCn2nncc2CO[C@@H]1CN(C)S(=O)(=O)c1ccc(F)cc1	0.1

(list continues)
SMILES | A1 apoptosis 2
C[C@@H]1CN([C@@H](C)CO)C(=O)c2cccc(NC(=O)NC3CCCCC3)c2O[C@@H]1CN(C)Cc1ccccc1 | 0.5
C[C@H]1CN([C@@H](C)CO)C(=O)CCCn2nncc2CO[C@@H]1CN(C)Cc1ccc(Oc2ccccc2)cc1 | 0.9
Cc1ccc(S(=O)(=O)Nc2ccc3c(c2)C(=O)N([C@@H](C)CO)C[C@@H](C)[C@H](CN(C)S(C)(=O)=O)O3)cc1 | 0.0
Cc1ccc(F)cc1S(=O)(=O)N[C@@H]1CCN(C(=O)c2ccc(OC(C)C)cc2)C1 | -0.1
C[C@@H]1CN([C@H](C)CO)C(=O)Cc2cc(NC(=O)Cc3cn(C)c4ccccc34)ccc2O[C@H]1CN(C)S(=O)(=O)c1ccc(Cl)cc1 | -1.1
Cc1noc(C)c1S(=O)(=O)Nc1ccc2c(c1)C(=O)N([C@@H](C)CO)C[C@@H](C)[C@@H](CN(C)C(=O)CCC(F)(F)F)OCCCC[C@H](C)O2 | -0.9
C[C@H]1CN([C@@H](C)CO)C(=O)c2cccc(NC(=O)NC3CCCCC3)c2O[C@@H]1CN(C)C(=O)Nc1ccc(F)cc1 | 0.0
Cc1noc(C)c1NC(=O)N(C)C[C@@H]1Oc2ccc(NC(=O)Nc3ccc4c(c3)OCO4)cc2CC(=O)N([C@H](C)CO)C[C@H]1C | -0.7
C[C@@H]1CN([C@H](C)CO)C(=O)c2cccc(NC(=O)Nc3ccc(F)cc3)c2O[C@@H]1CN(C)Cc1ccc(Oc2ccccc2)cc1 | -0.2
CC(C)NC(=O)N(C)C[C@H]1OCCCC[C@H](C)Oc2ccc(NS(=O)(=O)c3cn(C)cn3)cc2C(=O)N([C@@H](C)CO)C[C@@H]1C | -0.3
Cc1ccc(S(=O)(=O)Nc2ccc3c(c2)C(=O)N([C@@H](C)CO)C[C@@H](C)[C@H](CN(C)CC2CCCCC2)OCCCC[C@H](C)O3)cc1 | 0.0
C[C@@H]1CN([C@H](C)CO)C(=O)Cc2cc(NC(=O)c3ccncc3)ccc2O[C@H]1CN(C)Cc1ccc(C(=O)Nc2ccccc2N)cc1 | -0.3

A portion of the library; rates above refer to the full screens.
